# HPGD inh = qHTS Assay for Inhibitors of HPGD (15-Hydroxyprostaglandin Dehydrogenase). 15-hydroxyprostaglandin dehydrogenase [NAD(+)] (Homo sapiens), P15428. purified HPGD, NADH fluorescence kinetic, PGE2 substrate. Potency, µM, inactives show top-dose activity change, negative = inhibition, hits mostly inhibitors. 4.3% of 150,000 active; active = well fitted inhibition curve with a large enough effect (not every such curve was filed as active); inconclusive = small, poorly fitted or top-dose-only effect, or another doubt; inactive = no such curve, though single readings can be large or run the other way;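 also: top concentration of the series not given in the record; plate controls included wells without enzyme; inactives centre near -10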
# Target sequence (P15428 whole entry, looked up): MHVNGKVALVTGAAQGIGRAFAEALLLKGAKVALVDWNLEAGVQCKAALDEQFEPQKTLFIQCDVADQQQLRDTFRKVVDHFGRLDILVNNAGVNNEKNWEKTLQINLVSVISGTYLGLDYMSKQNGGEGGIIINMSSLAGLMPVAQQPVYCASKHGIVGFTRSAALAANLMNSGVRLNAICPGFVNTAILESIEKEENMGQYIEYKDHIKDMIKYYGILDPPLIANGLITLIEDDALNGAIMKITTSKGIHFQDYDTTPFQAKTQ
#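 20 nM HPGD preincubated 15 min at room temperature with compound in 50 mM Tris-HCl pH 8, 0.01% Tween 20. Started with 1 mM NAD+ and 30 uM prostaglandin E2; NADH fluorescence (360/450 nm) read 5 times over 30-s intervals, last minus first.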
# Active calls of the source: *; ? = inconclusive. % is scaled to controls: 0 for no effect and ±100 for the full control effect; potency is read from the fitted curve at half-maximal effect. Not all compounds are listed; rates above refer to the full screens.
HPGD inh | structure
-6% | C=CCn1c(SCC(=O)NCc2ccco2)nc2sc3c(c2c1=O)CCCC3
? | CCN(CC)S(=O)(=O)c1ccc(N/N=C/c2ccc(OC)c(OC)c2OC)nc1
-2% | COC(=O)[C@H](C)NC(=O)NCc1ccco1
-12% | CCCS(=O)(=O)N1CCCC(C(=O)NCCN(C)Cc2ccccc2)C1 (stereo not given)
-11% | CCOC(=O)C1=C(C)Nc2nc3ccccc3n2C1c1cccs1 (stereo not given)
-24% | O=C(/C=C/c1ccc(OCCCF)cc1)NCc1ccc(Cl)c(Cl)c1
-9% | COc1ccc(NC(=O)N2CCC(C(=O)c3ccc(F)cc3)CC2)cc1
-2% | Cc1ccc(S(=O)(=O)NCCCCCC(=O)Nc2ccccc2)cc1

HPGD inh | structure
-10% | COc1cccc(N2CCN(c3ncccn3)CC2)c1
-2% | Cc1ccnc(NS(=O)(=O)c2ccc(NC(=O)c3ccc(C)o3)cc2)n1
2% | NNC(=O)CNC(=O)c1ccc(F)cc1
-27% | COc1ccc2c(c1)OC(O)(C(F)(F)F)CC2=O (stereo not given)
16µM* | COc1cccc(-c2cc(C(=O)NC3CCCC3)no2)c1
-14% | C=CCOc1ccccc1/C=N/NC(=O)c1ccc(Cl)cc1Cl
-5% | CCCC(O)(c1ccc(Cl)cc1)C(CN1CCOCC1)c1ccccc1 (stereo not given)
-5% | CC(=O)c1ccc(NC(=O)CSc2nc3nc(C)cc(C)n3n2)cc1

# In a second layout: 3 of the compounds above.
CCCS(=O)(=O)N1CCCC(C(=O)NCCN(C)Cc2ccccc2)C1 (stereo not given)
  HPGD inh: -12%
Cc1ccc(S(=O)(=O)NCCCCCC(=O)Nc2ccccc2)cc1
  HPGD inh: -2%
NNC(=O)CNC(=O)c1ccc(F)cc1
  HPGD inh: 2%

# Additional results follow:
HPGD inh | structure
-3% | COC(=O)[C@H](CCSC)NC(=O)Nc1ccc(OC)cc1
-6% | CCn1c(C)nc2cc(S(=O)(=O)C(F)F)ccc21
-11% | Cc1noc(C)c1S(=O)(=O)N(CCc1ccccc1)Cc1ccccc1
-28% | c1ccc2c(c1)oc1c(Nc3ccc(CN4CCOCC4)cc3)ncnc12
? | CC1CCCC(NC(=O)COC(=O)c2ccccc2NC(=O)c2ccco2)C1C (stereo not given)
-8% | COC(=O)c1ccc(NC(=O)C2CCCCC2C(=O)O)cc1 (stereo not given)
-11% | Cc1nn(C)cc1C(=O)Nc1cc(Oc2ccc(Cl)cc2)cc([N+](=O)[O-])c1
-2% | O=C(N/N=C/c1c(F)c(F)c(F)c(F)c1F)c1ccc(Cn2cc(Br)cn2)o1

HPGD inh | structure
-15% | Cc1ccc(C(=O)O)cc1S(=O)(=O)NCC1CCCO1 (stereo not given)
22µM* | COc1ccc(/C=C2\C(=O)N(c3c(Cl)cc(Cl)cc3Cl)N=C2NC(=O)c2cccc([N+](=O)[O-])c2)cc1
-7% | CS(=O)(=O)N1CCC2(CCCN(C(=O)Nc3ccccc3)C2)CC1
-19% | Cc1ccccc1NC(=O)c1ccccc1NC(=O)Cc1cccc2ccccc12
-12% | NCCNc1ncnc2ccc(Cl)cc12
-8% | Cc1ccc(NC(=O)Cc2c[nH]c3ccccc23)cc1S(=O)(=O)N1CCCCCC1
-11% | COc1ccccc1CN(Cc1nc2ccccc2c(=O)[nH]1)C(=O)Nc1ccccc1C
-2% | COc1ccc(NC(=O)N2CCC3(CC2)CCN(S(=O)(=O)c2ccccc2)CC3)cc1

# Looked up by structure from above (4):
HPGD inh | structure
-11% | COc1ccccc1CN(Cc1nc2ccccc2c(=O)[nH]1)C(=O)Nc1ccccc1C
-2% | COc1ccc(NC(=O)N2CCC3(CC2)CCN(S(=O)(=O)c2ccccc2)CC3)cc1
-8% | Cc1ccc(NC(=O)Cc2c[nH]c3ccccc23)cc1S(=O)(=O)N1CCCCCC1
-12% | NCCNc1ncnc2ccc(Cl)cc12

# Additional entries follow:
HPGD inh | structure
5% | CCOC(=O)N1CCN(C(=O)N2CCOCC2)CC1
-3% | Cc1ccc(-n2c(SCC(N)=O)nnc2-c2ccccn2)cc1C
-14% | NC(=O)N1CCN(C(=O)c2ccco2)CC1
-3% | Cc1nc(SCC(=O)N2CCC(C(N)=O)CC2)n[nH]1
-10% | CCC1=C2CC[C@H]3C(=O)N(c4ccccc4)C(=O)[C@H]3[C@H]2[C@@]2(Cc3ccccc3)C(=NCCc3c[nH]c4ccccc34)OC(=O)N2C1=O
? | O=C(CSc1nc2ccccc2s1)Nc1ncccn1
-4% | CCOc1ccccc1NC1c2ccccc2C(=O)N1c1ccc(C)cn1 (stereo not given)
-5% | COc1cc(C(=O)N2CCC(NC(=O)C(Cc3ccc(C)cc3)NC(C)=O)CC2)cc(OC)c1OC (stereo not given)

HPGD inh | structure
-7% | Cc1ccc(NC(=O)C(=O)NC(C)C2COc3ccccc3O2)cc1 (stereo not given)
-21% | N#CCCN(C(=O)COC(=O)c1ccc(S(=O)(=O)Nc2ccccc2)cc1)c1ccccc1
-4% | O=C1Nc2c(Br)cc(Br)cc2C1(O)N1CCOCC1 (stereo not given)
-4% | CC(=O)N1N=C(c2cccc([N+](=O)[O-])c2)OC1(C)CC(=O)Nc1ccccc1 (stereo not given)
-6% | CC1Cc2nc(SCC(=O)NCC3CCCO3)n(Cc3ccccc3)c(=O)c2S1 (stereo not given)
? | O=C(OC(C(=O)NC1CCCCC1)c1ccccc1)c1ccco1 (stereo not given)
-17% | Cc1c(C(=O)Nc2ccc3c(c2)OCO3)sc2ncn(CC(=O)N3CC(C)CC(C)C3)c(=O)c12 (stereo not given)
-8% | COc1ccc(CNC(=O)CSc2nc3nc(C)cc(C)n3n2)cc1

# 2 entries from above in a different format.
SMILES: CC(=O)N1N=C(c2cccc([N+](=O)[O-])c2)OC1(C)CC(=O)Nc1ccccc1 (stereo not given)
  HPGD inh = -4%

SMILES: CC1Cc2nc(SCC(=O)NCC3CCCO3)n(Cc3ccccc3)c(=O)c2S1 (stereo not given)
  HPGD inh = -6%

# Next compounds.
HPGD inh | structure
-3% | CCCC(=O)c1cc2cc(Cl)ccc2oc1=O
-9% | Cc1ccccc1C(=O)N[C@H](C(=O)Nc1ccc(Cl)c(Cl)c1)C(C)C
-3% | CN1CCC(NC(=O)c2cccs2)CC1
-8% | CC1CC(C)CN(S(=O)(=O)c2ccc(F)c(C(=O)Nc3ccc(Cl)cc3F)c2)C1 (stereo not given)
? | Cn1c(=O)c2nc(Cl)c(-c3ccccc3)nc2n(C)c1=O
-10% | CCOc1ccc(CSCCNC(=S)Nc2ccccc2)cc1
-5% | CCC(C)c1c(O)nc(SCC(=O)N2CCOCC2)[nH]c1=O (stereo not given)
-11% | Cc1ccccc1-c1nc2ccccc2o1

HPGD inh | structure
-8% | Cc1ccc(NC(=O)c2scc3c2CCCC3)cc1
-9% | CCOc1ccc(N2C(=O)CC(N3CCc4ccccc43)C2=O)cc1 (stereo not given)
? | COc1cc(NC(=O)CCCSc2nc(-c3ccco3)cc(C(F)(F)F)n2)cc(OC)c1OC
-15% | Cc1ccc2c(c1)N(CC(=O)N(Cc1ccc3c(c1)OCO3)CC1CCCO1)C(=O)C(C)O2 (stereo not given)
-15% | COc1cccc(Nc2c(F)c(OC)c(F)c(F)c2C(=O)O)c1
1% | CN(C)Cc1ccccc1Cc1ccccc1
-24% | CC1(C)CC(=O)C=C(Nc2cccc(O)c2)C1
-11% | CC(C)COC(=O)CCn1[nH]c(=O)c2ccccc2c1=O

HPGD inh | structure
-3% | C[C@@H]1O[C@@H](O[C@H]2[C@H](Oc3cc(O)c4c(c3)O[C@H](c3ccc(O)cc3)CC4=O)O[C@H](CO)[C@@H](O)[C@@H]2O)[C@H](O)[C@H](O)[C@H]1O
0% | O=C1C(Cc2ccccc2)SC(=Nc2ccccc2)N1c1ccccc1 (stereo not given)
-17% | CCc1nnc(NS(=O)(=O)c2ccc(NC(=S)NC(=O)/C=C/c3ccc(F)cc3)cc2)s1
-11% | Nn1cc(-c2ccccc2)nc1SCC(=O)NCCN1C(=O)CSC1=O
-13% | COc1c(C(C)C)cc(NC(C)=O)cc1C(C)C
-1% | O=C(Nc1ccccc1)N1CC[C@@]2(CCCN(C(=O)c3cccc(F)c3)C2)C1
-11% | CC12C=CC3(CN(Cc4ccccc4)C(=O)C3C1C(=O)NC1CC1)O2 (stereo not given)
-12% | Cc1[nH]c(=S)[nH]c(=O)c1Cc1ccccc1

HPGD inh | structure
-1% | CCOc1ncccc1C(=O)N1CCN(Cc2ccc3c(c2)OCO3)CC1
-10% | O=C(Nc1cccc(S(=O)(=O)N2CCOCC2)c1)c1ccc(N2CCOCC2)c([N+](=O)[O-])c1
-8% | CN(c1cccc(NS(=O)(=O)c2cccs2)c1)S(C)(=O)=O
-4% | COc1ccc(NC(=O)COC(=O)/C=C/c2ccccc2[N+](=O)[O-])cc1OC
-17% | CC(C)NC(=O)C1CCN(Cc2cnn(-c3ccccc3)c2-n2cccc2)CC1
-21% | NC(=O)CSc1ncnc2c1cnn2Cc1ccccc1
? | N#Cc1c(Cl)nc(N/N=C/c2ccccc2)c(Cl)c1Cl
-10% | COc1cc(C2NC(=O)NC(C)=C2C(=O)OCc2ccc(C)cc2)cc(OC)c1O (stereo not given)

HPGD inh | structure
18µM* | O=C(CSc1n[nH]c(-c2cccs2)n1)NCc1cccs1
-13% | O=C(c1ccc(-n2c(SCc3cccc(F)c3)nc3ccccc3c2=O)cc1)N1CCOCC1
2% | COc1ccc(N2CC(C(=O)OCC(=O)NCc3ccccc3)CC2=O)cc1 (stereo not given)
-5% | Cn1nnnc1SCCNCc1cccnc1
-7% | O=C1CCC(C(=O)OCC(=O)N2N=C3/C(=C/c4ccccc4)CCCC3C2c2ccccc2)N1 (stereo not given)
-9% | C=CCc1cccc(/C=N/NC(=O)C(C)Nc2ccc(C)cc2)c1O (stereo not given)
? | CC1(C)N=C(c2cccs2)C(C)(C)N1O
32µM* | CCCOC(=O)c1ccc(NC(=O)c2ccoc2C)cc1

HPGD inh | structure
-12% | CCOc1cc(C)cc2oc(=O)cc(-c3ccccc3)c12
0% | COc1ccc(NC(=O)CSc2ccccc2)cc1S(=O)(=O)N1CCCCC1
? | COc1cccc(-n2nnc3c(=O)n(Cc4cccc(C)c4)cnc32)c1
-7% | CCNc1nc(N)nc(-c2cc(Cl)ccc2OC)n1
? | Cc1ccc(CNC(=O)/C=C/c2cccs2)cc1
-13% | Nn1c(SCc2nc3ccccc3[nH]2)nnc1-c1ccccc1
-8% | O=C(NCc1ccc2c(c1)OCO2)C1CCN(S(=O)(=O)N2CCCCC2)CC1
-23% | CCCCOC(=O)Nc1cc(Cl)ccc1C

HPGD inh | structure
-13% | O=C(COC(=O)CCC(=O)c1cccs1)Nc1ccc(S(=O)(=O)N2CCOCC2)cc1
-3% | COc1ccc(C(=O)N2CCC3(CCCN(C(c4ccccc4)c4ccccc4)C3)CC2)cc1
-10% | COc1ccc(CCNc2cc(=O)[nH]c(N)n2)cc1
-6% | CN(C)c1cccc2c1C(=O)c1ccccc1C2=O
-2% | Cc1ccc(S(=O)(=O)N2CCCOC2CNC(=O)C(=O)NCCC2=CCCCC2)cc1 (stereo not given)
-10% | CC(C)c1cc(C(F)(F)F)n2nc(C(=O)Nc3ccc4c(c3)OCO4)cc2n1
-13% | O=C(c1ccc2c(Cl)c3c(nc2c1)CCCC3)N1CCN(c2ccc(F)cc2)CC1
-7% | CN1CCN(c2ccc([N+](=O)[O-])cc2C(=O)N2CCCCC2)CC1

HPGD inh | structure
-9% | Cc1nc(Cl)sc1C(=O)NC(C)c1ccc(Cl)cc1 (stereo not given)
-5% | C=CCNC(=O)c1ccccc1NC(=O)Nc1ccccc1
-5% | COc1ccc(Br)cc1-c1noc(-c2ccccc2)n1
18µM* | CCN(CC)C(=O)c1ccc(C)c(Br)c1
-8% | O=C(Nc1ccc(S(=O)(=O)N2CCc3ccccc32)cc1)c1ccc2c(c1)OCO2
1.1µM* | COc1ccc(-n2c(C)cc(C(=O)NC3CCCCC3)c2C)cc1
18µM* | CCOC(=O)c1[nH]c(C)c(C(=O)NC2CCCC2)c1C
? | Cn1c(-c2ccc3c(c2)OCO3)cnc1NCc1ccc(Cl)cc1

HPGD inh | structure
-5% | CCCC(=O)Nc1ccc(S(=O)(=O)Nc2cc(C)nc(C)n2)cc1
-14% | Cc1cccc2cc(C(c3nnnn3Cc3ccccc3)N3CCCc4ccccc43)c(=O)[nH]c12 (stereo not given)
-2% | Cc1occc1C(=O)Nc1cc(C(C)(C)C)on1
28µM* | O=C(CCS(=O)(=O)c1cccc2nsnc12)NC1CCCCC1
-9% | CC(C)[C@]1(Cl)CC[C@@H]2[C@]3(C)CCC[C@@](C)(C(=O)O)[C@H]3C[C@H](Cl)[C@@]2(Cl)[C@H]1Cl
-4% | CCCOc1ccc(-c2nnn(CC(=O)OCC)n2)cc1
-28% | CCOC(=O)n1c(=O)oc2ccccc21
6% | COc1nc(-c2ccccc2)cc(C(F)(F)F)n1

HPGD inh | structure
-12% | N=c1oc2c3c4c(cc2cc1C(=O)Nc1ccccc1)CCCN4CCC3
-12% | CC1(C)Cc2c(c(-c3ccccc3Cl)[nH]c(=O)c2C#N)CO1
-17% | COc1ccc(CCN2C(=O)C(Oc3ccccc3)C2c2ccc3c(c2)OCO3)cc1 (stereo not given)
? | COc1ccc2oc(-c3ccccc3)c(C(N)=O)c2c1
1% | O=C(Cn1cc2c(n1)CCCCC2)Nc1ccc(F)cc1F
